Screens (PubChem)
ClpP mod – qHTS Assay for Activators of ClpP; Potency, µM (highest dose often 57.5 µM), without a hit: at the top dose activity change, negative = active; purified B. subtilis ClpP, FRET peptide cleavage, 20 min; 340,000 tested, 1.9% active; AID 651965, 2013; ATP-dependent Clp protease proteolytic subunit (Bacillus subtilis (strain 168)), P80244; active = well fitted falling curve with a large enough effect; inconclusive = small, poorly fitted or top-dose-only effect; inactive = no such curve, though single readings can be large or run the other way; also: potency is read from the fitted curve at half-maximal effect; the source files actives as falling curves though it sought activators and does not explain the sign; nearly all actives have a fitted effect of over 65% in size; many hits overshoot -100%
Target sequence (P80244 whole entry, looked up): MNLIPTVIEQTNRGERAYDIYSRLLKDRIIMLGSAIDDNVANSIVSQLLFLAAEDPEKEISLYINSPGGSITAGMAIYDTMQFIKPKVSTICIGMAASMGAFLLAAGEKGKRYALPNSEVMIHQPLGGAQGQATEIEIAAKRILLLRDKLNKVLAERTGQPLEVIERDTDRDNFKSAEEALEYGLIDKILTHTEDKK
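FRET quenching reversal measured ClpP activation: 10 microg/mL B. subtilis ClpP at pH 8 with the FRET-FV decapeptide, read at 430 nm after 320 nm excitation. The 20-min minus 0-min signal was scaled between DMSO/no-enzyme wells and ADEP (5.8 microM final).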
gsp ag – gsp mutant agonism; 340,000 tested, 0.13% active; Potency, µM (doses to about 76.9 µM), for inactives: at the top dose activation (cAMP increase), most hits filed as activators; gsp mutant cells, cAMP HTRF, 30 min; control for the full effect not named in the record; active = well fitted activation curve with a large enough effect; inconclusive = small, poorly fitted or top-dose-only effect, or another doubt; inactive = no such curve, though single readings can be large or run the other way; cell line not stated here;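 also: phosphodiesterase inhibitor Ro 20-1724 added with compounds to block cAMP breakdown; potency is read from the fitted curve at half-maximal effect; nearly all actives have a fitted effect of over 60% in size; about a fifth of the inactives were tested at one dose only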
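Cells in DMEM/10% FBS with G418 were pretreated with compounds in DMSO plus […] (300 uM stock) for 30 min at 37C. cAMP was measured by HTRF (cAMP-d2 plus anti-cAMP antibody-K) after 30 min at room temperature.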
gsp antagonist – gsp mutant antagonism | gsp-mutant cells, cAMP HTRF, 30 min; control for the full effect not named in the record | Potency, µM (titrated, usually from 76.9 µM), for inactives: top-dose activity change, negative = inhibition, hits mostly inhibitors | 340,000 tested, 0.4% active | AID 624288; active = falling curve of any shape with a large fitted effect; inconclusive = falling curve, mostly with a smaller effect; inactive = flat or rising curve; cell line not stated here;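 also: intracellular cAMP measured with PDE inhibitor Ro 20-1724 present during compound exposure; potency is read from the fitted curve at half-maximal effect; % is scaled to controls: 0 for no effect and ±100 for the full control effect; nearly all actives have a fitted effect of over 65% in size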
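Measurement of cellular cAMP by homogeneous time-resolved fluorescence following a 30 min compound exposure at 37C. The PDE inhibitor […] was present throughout; the assay buffer was DPBS with 0.05% BSA and 0.005% Tween 20.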
TRPML1 inh – blocks the human TRPML1 channel; Q9GZU1; TRPML1-inducible cells, Ca2+ dye fluorescence, FDSS; stronger effect = lower value; inhibition of EC80 agonist-evoked calcium signal; activity change, negative = inhibition, % (concentration not given with the values); 390,000 tested, 0.02% active; AID 624415; in the data active means activity change below about -50%; inconclusive means about -30% to -50%; inactive means above about -30%;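 also: stimulus is agonist 54-4 at its EC80 concentration; % is scaled to controls: 0 for no effect and ±100 for the full control effect; compound concentration not given in the record; the text of the record puts the active cut at -80%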
Target sequence (Q9GZU1 whole entry, looked up): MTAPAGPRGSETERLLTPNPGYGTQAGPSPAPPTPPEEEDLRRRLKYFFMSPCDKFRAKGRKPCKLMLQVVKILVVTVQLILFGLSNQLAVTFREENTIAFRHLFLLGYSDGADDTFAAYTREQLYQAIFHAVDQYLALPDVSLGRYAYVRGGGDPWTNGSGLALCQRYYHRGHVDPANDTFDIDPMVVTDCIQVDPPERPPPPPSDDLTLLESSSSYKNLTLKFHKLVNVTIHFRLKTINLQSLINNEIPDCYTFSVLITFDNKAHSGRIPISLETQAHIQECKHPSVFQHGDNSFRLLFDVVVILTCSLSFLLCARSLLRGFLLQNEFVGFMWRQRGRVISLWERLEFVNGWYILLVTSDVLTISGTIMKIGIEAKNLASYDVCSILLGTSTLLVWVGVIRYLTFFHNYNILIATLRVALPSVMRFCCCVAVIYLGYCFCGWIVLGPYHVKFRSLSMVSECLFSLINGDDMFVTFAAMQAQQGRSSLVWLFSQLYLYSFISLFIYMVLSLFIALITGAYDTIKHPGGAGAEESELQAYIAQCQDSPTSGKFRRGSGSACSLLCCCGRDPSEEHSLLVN
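TRPML1-DL cells, Tet-induced overnight (~16 h, 37 °C) at 1,500 cells/well, were loaded with Ca8 no-wash dye plus quencher for 45-90 min at room temperature. Compounds were pinned during FDSS kinetic reading; agonist 54-4 at EC80 (4 uM final) then added.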
Menin-MLL FL inh – menin-MLL binding inhibition, fluorescein peptide | Fluorescence polarization, fluorescein-MLL peptide displacement from menin | FP activity change, % at 61.4 µM | 290,000 tested, under 10 active | AID 1766; inconclusive = falling polarisation curve, or a change in total fluorescence; inactive = total fluorescence flat and polarisation flat or rising; no compound was filed as active; the % refers to the polarisation; negative = inhibition;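 also: % of control where 0% means no effect; inhibitors lower the polarisation; unlabelled MLL peptide was the positive control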
TRPML1 ag – activates the human TRPML1 channel. Q9GZU1. TRPML1-expressing cells, Ca2+ dye fluorescence, FDSS; host cell line not named in the record; reference of the full effect not given here. activation, % (concentration not given with the values). 410,000 tested, 0.12% active; in the data active = activation above about 50%; inconclusive = about 30% to 50%; inactive = below about 30%; also: 0% is about no effect; the text of the record puts the active cut at 80%
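Tet-induced TRPML1-DL cells, 1,500 per well, cultured overnight, were loaded with a no-wash Ca2+ dye for 45–90 min. Calcium fluorescence was recorded on the FDSS for 110 s after compound addition, before the EC80 agonist (4 uM 54-4) was added.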
Active calls of the source: *; ? = inconclusive; . = not tested or not shown; & = joins results of further samples; [ ] = another dose, or the depositor's remark.

The line under a structure holds: gsp antagonist	ClpP mod	TRPML1 ag	TRPML1 inh	gsp ag	Menin-MLL FL inh
1: Cc1nn(Cc2c(F)c(F)c(F)c(F)c2F)c(C)c1NC(=O)c1cccc(COc2ccc(Cl)cc2)c1
    6.9%	-0.1%	0.1	-8.5	19.9%	2.1
2: Cc1cc2cc3c(cc2nc1SCc1ccc(C(=O)O)cc1)OCCO3
    -3.8%	-17.1%	0.6	20.2	7.2%	2.5
3: Cc1ccc(SC[C@H](Cc2ccccc2)N2CCN(C)CCC2=O)cc1
    11.2%	-2.1%	4.2	-3.3	.	3.6
4: O=C(OCC(=O)N1CCOCC1)c1ccc(Cl)cc1[N+](=O)[O-]
    6.3%	.	1.0	0.1	1.7%	-8.7
5: O=C(CCNC(=O)c1ccccc1)OCC(=O)c1cccc(Cl)c1
    7.4%	-0.8%	0.4	2.3	-36.3%[inhibitor]	2.5
6: CCc1ccc(C(C(=O)NCCOC)N(C(=O)Cn2nnc3ccccc32)c2cccnc2)cc1 (stereo unspecified)
    4.1%	-1.7%	0.5	2.6	9.4%	-5.5
7: Cc1ccccc1OCc1nnc(SCC(=O)Nc2ccc(N3CCOCC3)cc2)n1C
    3.7%	.	0.3	-8.4	26.0%	1.6
8: CC1CCCC(NC(=O)c2cccs2)C1C (stereo unspecified)
    -4.5%	-1.1%	-0.1	-11.7	4.7%	.
9: NS(=O)(=O)c1ccc(NC(=O)Nc2ccc3c(c2)OCO3)cc1
    4.6%	-2.9%	0.4	-6.1	20.0%[15.4 µM]	2.7
10: COc1ccc(C2C(C#N)=C(N)SC(N)=C2C#N)cc1OC
    -1.7%	2.2%	1.9	1.3	?	?
11: Cc1ccc(OCCSc2nc3ccccc3n2CCC(=O)O)c(C(C)C)c1
    .	-1.9%	-0.7	18.3	-32.0%[inhibitor]	.
12: COc1ccccc1NC(=O)CCc1nnc2ccc(NCc3ccco3)nn12
    -5.6%	-0.7%	-1.7	4.0	4.7%	.
13: O=C(NCCCN1CCCCCC1)c1cc2c(=O)oc3ccccc3c2s1
    -1.1%	.	0.3	12.1	-2.8%	-0.3
14: CCc1c(O)nc(SCC(=O)Nc2nc3ccccc3s2)n(C2CCCCC2)c1=O
    -25.1%	-0.7%	0.8	-9.7	5.1%	3.6
15: COc1ccc(-c2sc3ccc(N4CCOCC4)cc3c2C#CCO)cc1
    ?	-8.1%	-0.1	10.6	-11.0%	.
16: OC(CN1CCN(c2cccc(Cl)c2)CC1)c1ccc(F)cc1 (stereo unspecified)
    5.1%	-2.2%	0.3	0.9	-7.7%	-0.6
17: CCOc1c2ccc(C(=O)NCCc3cccs3)cc2nn1CC
    -0.9%	4.5%	-0.7	11.9	31.2%	-1.5
18: CCCc1nc2c(c(=O)c3ccccc3n2C)c(=O)n1-c1cc(C)cc(C)c1
    -9.5%	-1.6%	-1.4	-11.4	-13.0%	1.8
19: COc1cccc(NC(=O)CSC2=Nc3ccccc3C3=NC(CCC(=O)NC4CCCCC4)C(=O)N23)c1 (stereo unspecified)
    .	-1.3%	-0.2	18.0	.	.
20: Cc1ccc(-n2c(=O)c3ccccc3n(CC(=O)C(C)(C)C)c2=O)cc1
    -6.3%	-10.4%	.	.	16.7%	2.2
21: O=C(COC(=O)C1CC2CCCC(C1)C2=O)NC(=O)c1ccc(OC(F)F)cc1 (stereo unspecified)
    4.7%	-3.0%	0.7	4.0	-27.6%	5.0
22: O=C(CSc1nc(Nc2ccccc2)nc(N2CCOCC2)n1)Nc1ccccc1Cl
    3.7%	-14.4%	0.4	-10.2	-44.6%[inhibitor]	-1.5
23: COc1ccc(COC(=O)c2cccc(S(=O)(=O)N3CCCC3)c2)cc1F
    -16.2%	-3.1%	0.5	24.4	25.3%	.
24: COc1ccc(-c2nnc(COc3ccc4ccccc4c3)o2)cc1OC
    -1.8%	?	2.4	5.4	33.4%	1.6
25: Cc1ccc(N(C)C(=O)CCS(=O)(=O)c2cc3c(cc2Cl)NC(=O)CO3)cc1
    -11.5%	3.1%&1.0%	-0.4&1.2	-8.1&-11.7	36.1%	4.1
26: O=C(NCc1ccc2c(c1)OCO2)c1ccc2c(c1)OCCO2
    -6.1%	-3.1%	0.7	8.3	2.8%	4.5
27: Cc1cc(C)c(NC(=O)CCCN2C(=O)COc3ccc(C)cc32)c(C)c1
    .	-0.8%	0.5	22.0	.	.
28: CN(Cc1ccccc1NS(=O)(=O)c1ccc(Cl)cc1)C1CCCCC1
    -4.2%	0.7%	-0.4	-2.2	-12.3%	1.3
29: CCN(CC)c1ccc(C(=O)OCC(=O)NC(C)(C)C)cc1
    -2.5%	.	0.5	-0.7	-3.4%[15.4 µM]	1.5
30: Cc1nnc(SCC(=O)N2CCN(S(=O)(=O)c3ccc(Cl)cc3)CC2)n(N)c1=O
    -7.4%	1.6%	1.5	-0.2	8.5%	1.3

Another view of two compounds above.
#12 COc1ccccc1NC(=O)CCc1nnc2ccc(NCc3ccco3)nn12
#23 COc1ccc(COC(=O)c2cccc(S(=O)(=O)N3CCCC3)c2)cc1F

| Assay by compound | 12 | 23 |
| --- | --- | --- |
| gsp antagonist | -5.6% | -16.2% |
| ClpP mod | -0.7% | -3.1% |
| TRPML1 ag | -1.7 | 0.5 |
| TRPML1 inh | 4.0 | 24.4 |
| gsp ag | 4.7% | 25.3% |
| Menin-MLL FL inh | . | . |

Additional entries follow:
The line under a structure holds: gsp antagonist	ClpP mod	TRPML1 ag	TRPML1 inh	gsp ag	Menin-MLL FL inh
31: COCCn1c(-c2ccc(OC(F)(F)C(F)C(F)(F)F)cc2)nc2c1c(=O)[nH]c(=O)n2CC(C)C (stereo unspecified)
    -6.0%	28.2µM*	-0.5	4.1	26.7%	5.0
32: CC(C)c1ccccc1OCC(=O)Nc1nnc(C2CC2)s1
    6.4%	.	1.7	11.0	10.4%[15.4 µM]	.
33: O=C(COC(=O)c1cnccn1)c1ccc(C2CCCCC2)cc1
    14.2%	.	1.0	16.1	7.3%	1.5
34: Cc1nnc(SCC(=O)Nc2cc(S(=O)(=O)N3CCOCC3)ccc2C)s1
    -2.1%	.	0.4	25.7	17.1%[15.4 µM]	.
35: C=CCNC(=O)c1cc2nc(C3CC3)cc(C(F)F)n2n1
    5.7%	-1.3%	0.8	-5.5	-1.0%	2.1
36: O=C(CCCc1ccccc1)Nc1nccs1
    9.7%	-0.1%	0.2	-10.7	9.7%[15.4 µM]	.
37: Cc1[nH]c2ccccc2c1/C=N/NC(=O)CNC(=O)c1ccco1
    -11.1%	-0.8%	-0.3	-29.9	12.8%[15.4 µM]	2.3
38: O=C(Cc1ccc(Cl)cc1Cl)Nc1ccc(OC(F)F)c(Cl)c1
    ?	0.8%	1.4	-7.5	-9.5%[15.4 µM]	1.4
39: Cc1ccc2[nH]c(C(=O)O)c(NC(=O)c3ccccc3[N+](=O)[O-])c2c1
    4.0%	0.6%	-0.2	-0.5	27.7%	-2.0
40: CCc1ccccc1OCC(=O)Nc1ccc(C)c(S(=O)(=O)N2CCCCCC2)c1
    -14.9%	-3.4%	2.6	9.7	-22.3%	.
41: CCN(/N=C/c1ccc(N(C)C)cc1)c1nc2ccccc2[nH]1
    -24.3%	4.2%	3.0	3.0	-19.2%	-2.7
42: CCC(CC)C(=O)N1CCCC(c2nc(-c3cccs3)no2)C1 (stereo unspecified)
    3.7%	-0.2%	-0.2	9.9	3.8%	1.2
43: Nc1ncnc(N2CCOCC2)n1
    8.8%	-1.4%	0.6	-7.2	-1.4%	.
44: CCOC(=O)c1sc(NC(=O)COC(=O)C(CCSC)NC(C)=O)nc1C (stereo unspecified)
    12.0%	-1.3%	0.3	-2.5	-33.6%[15.4 µM]	-3.4
45: O=C(C[C@@H]1C/C=C\CCC(=O)OC[C@H](Cc2ccccc2)NC1=O)N[C@@H](CO)Cc1ccccc1
    3.7%	0.7%	-1.0	-1.2	.	.
46: O=C(Nc1nc(-c2ccc(F)c(F)c2)cs1)C1=COCCO1
    -14.4%	33.0%	0.5	-7.2	0.5%	.
47: Cc1ccc[n+](-c2[nH]c(=O)sc2/C=N/NC(=O)c2ccccc2[O-])c1
    12.3%	-4.7%	-0.3	7.0	-14.0%	-21.2
48: CC(=O)Oc1ccc(NC(=O)Cc2ccccc2)cc1
    5.7%	-2.1%	1.4	36.6	-60.3%[inhibitor]	2.9
49: Cc1ccc(/C=C/C(=O)Nc2nnc(C)s2)o1
    4.5%	-6.9%	2.9	-15.5	-37.1%[inhibitor]	4.6
50: CCOC(=O)c1c(C)[nH]c(C)c1S(=O)(=O)NCCc1cccs1
    1.1%	-0.7%	-0.1	-6.0	-0.6%	0.0
51: COc1ccc(S(=O)(=O)Cc2ccc(C(=O)O)o2)cc1
    -2.9%	0.9%	.	.	-0.8%	1.4
52: COc1ccc(NC(=O)CN(CC(=O)Nc2ccc(OC)cc2)C(C)(C)CO)cc1
    5.1%	1.5%	3.3	-13.7	27.3%	1.3
53: OC1CCCCC1Sc1nc2ccccc2s1 (stereo unspecified)
    0.6%	0.5%	0.1	14.1	-2.1%	4.9
54: CN(C)S(=O)(=O)c1cccc(NC(=O)c2c[nH]c3ccccc23)c1
    -27.2%	.	-0.3	-8.5	2.4%	-7.6
55: Cc1cc(C)cc(C(=O)NCC(=O)N2CCC(C(N)=O)CC2)c1
    9.2%	0.2%	-0.1	-12.2	-21.2%	.
56: O=C(OCCOCCOC(=O)Oc1ccccc1)Oc1ccccc1
    7.6%	0.2%	0.4	-9.9	-18.4%	.
57: COc1ccc(C2=NN(C(N)=S)C(c3ccccc3)C2)cc1 (stereo unspecified)
    -15.8%	.	3.7	1.6	0.8%[15.4 µM]	1.1
58: Cc1ccc(/C=N/Nc2ccc(F)cc2F)s1
    -1.9%	-1.8%	1.1	?	28.2%	1.1
59: COc1cc(/C=C/C(=O)OCC(=O)c2ccc[nH]2)cc(OC)c1OC
    1.5%	-8.4%	0.8	5.3	-7.2%	.
60: Cn1c(CC(=O)NNC(=O)c2ccc(F)cc2Cl)nc2ccccc21
    -0.8%	-1.3%	-0.2	7.0	26.5%	.
61: O=C(c1ccco1)N1CCN(C23CC4CC(CC(C4)C2)C3)CC1
    -1.4%	-1.3%	-0.6	2.8	-6.7%	.
62: Cc1cccc(N2CC(C(=O)O)CC2=O)c1 (stereo unspecified)
    16.8%	3.3%	-0.3	0.0	-14.6%	7.2
